D2 potentiator: potentiates the human D2 dopamine receptor allosterically. P14416. actives 0.23% (n = 360,000). AID 624464. DiscoveRx D2 beta-arrestin cells, luminescence, 90 min; 100% = 57 uM dopamine signal. potentiation, % (concentration not given with the values); active = potentiation of 50% or more; inconclusive = 30% to 50%; inactive = 30% or less;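 also: compound concentration not given in the record; tested on top of an EC20 dose of dopamine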
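D2 cells co-treated with compound plus 50 nM dopamine (EC20) for 90 min at 37 deg C to detect potentiation. Beta-arrestin recruitment was read as enzyme-fragment luminescence after 1 h at ambient temperature. Full response was set by 57 uM dopamine.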
TRPV1 potentiator: enhances activation of the human vanilloid receptor TRPV1. potentiation, % at 8.33 µM. TRPV1-expressing cells, Fluo-8 calcium influx, capsaicin EC20 potentiation; host cell line not named in the record; control for the full effect not named in the record. actives 0.02% (n = 320,000); active means potentiation above 80%; inconclusive means 30% to 80%; inactive means below 30%; also: 0% is about no effect
Target sequence (Q8NER1 whole entry, looked up): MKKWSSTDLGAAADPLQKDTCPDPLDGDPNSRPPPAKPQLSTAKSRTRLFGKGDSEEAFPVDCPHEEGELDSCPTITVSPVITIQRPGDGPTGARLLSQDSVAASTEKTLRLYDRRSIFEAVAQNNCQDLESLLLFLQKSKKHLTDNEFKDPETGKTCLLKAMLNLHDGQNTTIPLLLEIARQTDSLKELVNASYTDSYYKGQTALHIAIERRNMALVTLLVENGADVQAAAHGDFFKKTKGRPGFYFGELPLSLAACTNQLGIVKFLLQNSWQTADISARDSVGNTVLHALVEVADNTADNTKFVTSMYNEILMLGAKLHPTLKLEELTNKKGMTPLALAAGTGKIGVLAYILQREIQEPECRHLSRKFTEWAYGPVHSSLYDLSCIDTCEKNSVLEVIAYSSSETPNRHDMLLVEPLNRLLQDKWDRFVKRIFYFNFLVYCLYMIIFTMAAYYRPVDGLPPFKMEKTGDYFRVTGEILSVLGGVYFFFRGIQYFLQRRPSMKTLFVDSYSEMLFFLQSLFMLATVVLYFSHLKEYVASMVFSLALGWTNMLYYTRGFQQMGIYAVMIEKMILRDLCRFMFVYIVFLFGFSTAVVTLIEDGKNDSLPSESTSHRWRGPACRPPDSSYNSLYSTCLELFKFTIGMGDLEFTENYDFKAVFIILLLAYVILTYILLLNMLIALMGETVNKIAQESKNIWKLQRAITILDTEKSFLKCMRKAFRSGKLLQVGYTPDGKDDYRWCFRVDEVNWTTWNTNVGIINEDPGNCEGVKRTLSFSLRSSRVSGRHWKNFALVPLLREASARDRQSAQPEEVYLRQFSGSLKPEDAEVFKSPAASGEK
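Cells expressing TRPV1 were dye-loaded with Fluo-8 and read kinetically: 10 s baseline, 3 min after compound (agonist portion), then 2 min after EC20 capsaicin (allosteric enhancer portion). Calcium-bound dye fluorescence at 480/520 nm.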
Menin-MLL FL inh: menin-MLL binding inhibition, fluorescein peptide; Fluorescence polarization, fluorescein-MLL peptide displacement from menin; FP activity change, % at 61.4 µM; 290,000 tested, under 10 active; inconclusive = falling polarisation curve, or a change in total fluorescence; inactive = total fluorescence flat and polarisation flat or rising; no compound was filed as active; the % refers to the polarisation; negative = inhibition;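 also: % of control where 0% means no effect; inhibitors lower the polarisation; unlabelled MLL peptide was the positive control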
gsp antag: antagonists of gsp mutant (McCune-Albright syndrome). Potency, µM (doses to about 76.9 µM), for the others: at the top dose activity change, negative = inhibition, actives largely listed as inhibitors. AID 624288. gsp-mutant cells, cAMP HTRF, 30 min; control for the full effect not named in the record. actives 0.4% (n = 340,000); active = falling curve of any shape with a large fitted effect; inconclusive = falling curve, mostly with a smaller effect; inactive = flat or rising curve; cell line not stated here;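 also: intracellular cAMP measured with PDE inhibitor Ro 20-1724 present during compound exposure; potency is read from the fitted curve at half-maximal effect; % is scaled to controls: 0 for no effect and ±100 for the full control effect; nearly all actives have a fitted effect of over 65% in size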
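HTRF cAMP measurement after 30 min RT detection following 30 min, 37C compound treatment alongside […] (added as 300 uM solution) in G418-selected cells seeded at 2000/well and grown 16–24 h.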
ClpP mod: qHTS Assay for Activators of ClpP. purified B. subtilis ClpP, FRET peptide cleavage, 20 min. actives 1.9% (n = 340,000). Potency, µM (series often up to 57.5 µM), inactives show at the top dose activity change, negative = active; active = well fitted falling curve with a large enough effect; inconclusive = small, poorly fitted or top-dose-only effect; inactive = no such curve, though single readings can be large or run the other way; also: potency is read from the fitted curve at half-maximal effect; the source files actives as falling curves though it sought activators and does not explain the sign; nearly all actives have a fitted effect of over 65% in size; many hits overshoot -100%
Target sequence (P80244 whole entry, looked up): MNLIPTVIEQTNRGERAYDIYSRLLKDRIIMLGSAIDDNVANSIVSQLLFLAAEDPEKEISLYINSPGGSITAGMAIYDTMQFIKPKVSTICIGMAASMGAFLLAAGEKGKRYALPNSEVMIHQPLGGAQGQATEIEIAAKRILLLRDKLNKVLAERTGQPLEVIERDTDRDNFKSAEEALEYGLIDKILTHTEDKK
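Purified B. subtilis ClpP, 10 microg/mL final in Tris/HCl pH8 with KCl, BSA, glycerol and Tween-20, cleaved an Abz/nitrotyrosine-quenched decapeptide. Fluorescence (ex 320, em 430) was read at 0 and 20 min at room temperature. Delta was normalized to 5.8 microM ADEP and DMSO/no-enzyme controls.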
gsp ag: agonists of gsp mutant (McCune-Albright syndrome). gsp mutant cells, cAMP HTRF, 30 min; control for the full effect not named in the record. Potency, µM (doses to about 76.9 µM), for inactives: at the top dose activation (cAMP increase), hits mostly activators. actives 0.13% (n = 340,000); active = well fitted activation curve with a large enough effect; inconclusive = small, poorly fitted or top-dose-only effect, or another doubt; inactive = no such curve, though single readings can be large or run the other way; cell line not stated here;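 also: phosphodiesterase inhibitor Ro 20-1724 added with compounds to block cAMP breakdown; potency is read from the fitted curve at half-maximal effect; nearly all actives have a fitted effect of over 60% in size; about a fifth of the inactives were tested at one dose only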
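Cells stably selected in G418 were plated at 2000/well, grown 16-24 hr, then given compounds in DMSO with the PDE inhibitor […] (300 uM solution added) for 30 min at 37C; cAMP was read by HTRF.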
Sfp inh: Sfp phosphopantetheinyl transferase inhibition; Q9F4F7; Biochemical Sfp PPTase activity, qHTS; Potency, µM, without a hit: max response, negative = inhibition, actives largely listed as inhibitors; actives 3.5% (n = 310,000); AID 1490; active = well fitted inhibition curve with a large enough effect; inconclusive = small, poorly fitted or top-dose-only effect, or another doubt; inactive = no such curve, though single readings can be large or run the other way;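 also: the enzyme is Sfp with the accession as filed and its product quenches rhodamine fluorescence; potency is read from the fitted curve at half-maximal effect; 0% = enzyme reaction without inhibitor and -100% = no enzyme wells; top concentration of the series not given in the record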
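Reaction rates are the 30-min fluorescence difference (ex 525, em 598 nm) in wells containing 15 nM Sfp, 5 uM rhodamine-CoA and 12.5 uM BHQ-2-YbbR at pH 7.6 with 10 mM MgCl2.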
Numbers without * were called inactive; ? = inconclusive; · = no result given; & = joins results of further samples; [ ] = dose if it differs, or a comment.

cpd	SMILES	D2 potentiator	TRPV1 potentiator	Menin-MLL FL inh	gsp antag
1	COc1ccc(C(=O)Cc2ccc(OC)c(OC)c2)cc1	-6	3	0.2	-19%
2	Nc1nccc(/C=C/c2c(F)cccc2Cl)n1	-9	6	1.3	-3%
3	Cc1cc(NC(=O)CN2C(=O)NC3(CCC(C)CC3)C2=O)no1 (stereo not given)	0	2	1.4	2%
4	COc1ccc(C(=O)Cc2nnc(C)s2)c(OC)c1	-45	10	6.8	3%
5	Nc1c(C(=O)Nc2ccc3c(c2)OCCO3)nnn1Cc1ccc(F)cc1	6	16	·	13%
6	O=C(CS(=O)(=O)c1cn(CC(=O)N2CCCC2)c2ccccc12)Nc1ccccc1	4	-11	·	9%
7	O=C(CN1C(=O)C2C3CCC(C3)C2C1=O)OCC(=O)c1ccccc1 (stereo not given)	-29	5	·	2%
8	S=c1[nH]nc(CSc2nc3ccccc3s2)n1Cc1ccccc1	-7	8	1.3	?
9	O=C(CCNC(=O)c1ccccc1Cl)NCC1CCCO1 (stereo not given)	4	11	·	4%
10	COc1ccc(C2c3ccsc3CCN2C(C)=O)cc1 (stereo not given)	-17	4	0.4	0%
11	Cc1ccc(CNC(=O)Cn2cnc(S(=O)(=O)N3CCCCC3)c2)o1	-11	2	2.9	13%
12	O=C(N1CCCC1)C12CC3CC(C1)CC(C(=O)N1CCCC1)(C3)C2	0	-3	-0.9	18%

cpd	ClpP mod	gsp ag	Sfp inh
1	-0.9%	-16%	-4%
2	·	-3%[15.4 µM]	0%
3	-0.8%	-19%	7%
4	2.9%	14%	?
5	11µM*	-12%	·
6	2.8%	10%	8%
7	-0.5%	24%	17%
8	-1.9%	-29%	7%
9	·	22%[15.4 µM]	·
10	0.6%	-8%	7%
11	·	-1%	14%
12	·	1%[15.4 µM]	12%

(further entries)
cpd	SMILES	D2 potentiator	TRPV1 potentiator	Menin-MLL FL inh	gsp antag
13	COc1ccc(-c2nnc(NC(=O)C(C)C)o2)cc1	-4	3	1.9	0%
14	c1ccc(C2Nc3cccc4cccc(c34)N2)cc1	14	16	-3.6	?
15	Cc1c(/C(O)=C2/C(=O)C(=O)N(CCN3CCOCC3)C2c2ccccn2)cnn1-c1ccccc1 (stereo not given)	4	9	0.1	-1%
16	COc1cc(/C=C2\C(C)=C(C#N)c3nc(N)c(C#N)c(C)c32)ccc1OCC(=O)O	-5	1	?	4%
17	CCCCCCN1C[C@@H](n2cc(COC(=O)c3ccccc3)nn2)[C@H](O)C[C@@H]1c1ccc(Cl)cc1	3	·	·	·
18	CCOc1ccc(C(=O)Cn2cnnc2C#N)cc1	0	-14	-5.3	5%
19	Cc1nc(-c2ccccc2)nc2[nH]c(C(C)C)cc(=O)c12	-14	-26	-4.0	-9%
20	Cc1c(C(=O)N2CCCC2)oc2c1-c1nn(CC(=O)NCCCOC(C)C)cc1CC2	-15	11	·	-5%
21	CCOc1ccc(C(=O)NCC(=O)Nc2ccc(N3CCOCC3)cc2)cc1OCC	-35	-1	-2.5	4%
22	COC(=O)[C@H]1C[C@H]1[C@@H](NC(=O)c1ccc[nH]1)c1ccccc1	-17	·	-1.5	7%
23	CCSCc1nnc(SCC(=O)Nc2cccc(SC)c2)n1C	-6	14	-1.0	-7%
24	O=C(O)CC(C(=O)O)C(=Cc1ccccc1)c1ccccc1 (stereo not given)	-7	·	·	·

cpd	ClpP mod	gsp ag	Sfp inh
13	-0.1%	-6%	-1%
14	-4.8%	14%	28µM*
15	·	9%[15.4 µM]	?
16	-21%	25%	?
17	-0.2%	-2%	·
18	1.8%	8%[15.4 µM]	15%
19	-1.1%	-5%	-11%
20	-8.0%&12%	?	7%
21	-0.8%	-21%	24%
22	-2.9%	·	-4%
23	0.7%	-7%	-8%
24	-0.2%	-48%[inhibitor]	·

Copied from the list:
O=C(O)CC(C(=O)O)C(=Cc1ccccc1)c1ccccc1 (stereo not given) in D2 potentiator has -7
CCOc1ccc(C(=O)Cn2cnnc2C#N)cc1 in ClpP mod has 1.8%
Cc1c(/C(O)=C2/C(=O)C(=O)N(CCN3CCOCC3)C2c2ccccn2)cnn1-c1ccccc1 (stereo not given) in D2 potentiator has 4
CCCCCCN1C[C@@H](n2cc(COC(=O)c3ccccc3)nn2)[C@H](O)C[C@@H]1c1ccc(Cl)cc1 in D2 potentiator has 3
COC(=O)[C@H]1C[C@H]1[C@@H](NC(=O)c1ccc[nH]1)c1ccccc1 in Sfp inh has -4%

Part of the list above, reduced to ClpP mod, Menin-MLL FL inh and Sfp inh.
nr | Structure | ClpP mod | Menin-MLL FL inh | Sfp inh
22 | COC(=O)[C@H]1C[C@H]1[C@@H](NC(=O)c1ccc[nH]1)c1ccccc1 | -2.9% | -1.5 | -4%
23 | CCSCc1nnc(SCC(=O)Nc2cccc(SC)c2)n1C | 0.7% | -1.0 | -8%

Following part
cpd	SMILES	D2 potentiator	TRPV1 potentiator	Menin-MLL FL inh	gsp antag
25	Cc1ccc(CNC(=O)Cn2cncn2)cc1	-5	27	2.6	6%
26	CCOCCCNC(=O)C1(O)c2ccccc2NC(=O)N1c1ccc(C)c(C)c1 (stereo not given)	-8	-4	20	-1%
27	COc1ccccc1CNC(=O)COC(=O)C1CC1	3	1	·	10%
28	CC(=O)Nc1ccc(NC(=O)CSc2nc(=O)n(Cc3cccnc3)c3c2CCC3)cc1	-4	·	·	10%
29	O=C(O)COc1ccccc1/C=N/NC(=O)CSc1nc2ccccc2n1Cc1ccccc1Cl	-1	1	-0.2	7%
30	CCCc1cc(=O)oc2c(C)c(OC(C)C(=O)NCC(O)c3ccccc3)ccc12 (stereo not given)	2	-5	-1.4	-12%
31	COc1cccc(C(CNC(=O)C2CCN(C(=O)Nc3ccccc3)CC2)N(C)C)c1 (stereo not given)	-15	10	·	10%
32	CCCOC(=O)c1ccc(NC(=O)CN(C)Cc2cccs2)cc1	-2	-8	1.2	-2%
33	CCN1/C(=C/c2ccc3ccc(C)cc3[n+]2CC)Sc2ccccc21	-27	28	?	-13%
34	C=C1CCC2C(C)(C)[C@H](O)CC[C@@]2(C)[C@@H]1COc1cc(=O)oc2ccccc12 (stereo not given in full)	6	14	-0.2	-9%
35	CC(OC(=O)c1cc(=O)[nH]c2ccccc12)C(=O)NC1CCCC1 (stereo not given)	3	-1	·	6%
36	O=C1COc2ccc(S(=O)(=O)N3CCCCC3)cc2N1	-3	-16	·	2%

cpd	ClpP mod	gsp ag	Sfp inh
25	-2.5%	-39%[inhibitor]	13%
26	1.4%	-9%	2%
27	-0.2%	?	·
28	-2.0%	3%	·
29	·	-11%[15.4 µM]	-8%
30	?	7%	12%
31	0.7%	8%	·
32	·	-2%	-3%
33	-1.2%	8%	-8%
34	-22%	·	-12%
35	-16%	12%	·
36	-3.5%	-19%	19%

The list goes on.
cpd	SMILES	D2 potentiator	TRPV1 potentiator	Menin-MLL FL inh	gsp antag
37	Cc1onc(-c2ccccc2)c1C(=O)n1nnc2ccccc21	-1	·	1.4	0%
38	COc1ccc(NC(=O)CSc2nnc(N)s2)cc1	-8	4	0.9	7%
39	CCn1c(CN2CCOCC2)nnc1SCC(=O)Nc1ccc(C)cc1	4	-2	·	2%
40	CC(Oc1ccc(C(=O)c2ccccc2)cc1)C(=O)N1CCOCC1 (stereo not given)	6	-17	·	0%
41	CCCC1=Nc2cc(C(=O)N3CCCC3)ccc2Sc2ccc(C)cc21	2	-29	-5.7	-2%
42	COc1ccc(C(=O)C(OC(=O)c2ccccc2)c2ccccc2)cc1 (stereo not given)	-24	12	0.5	-7%
43	Brc1cc2c(cc1/C=N/Nc1nc3ccccc3s1)OCO2	-15	·	7.7	4%
44	COC(=O)c1ccc(CNC(=O)COC(=O)CNS(=O)(=O)c2ccc(C)cc2)cc1	-14	·	·	·
45	N#CCSc1ccccc1NC(=O)COC(=O)CCN1C(=O)C2CC=CCC2C1=O (stereo not given)	-5	-3	·	0%
46	O=C(N/C(=C/c1ccc(Cl)cc1)C(=O)N1CCCC1)c1ccccc1	0	-18	4.2	-9%
47	COc1ccc(C(=O)N2CC(=O)Nc3ccc(C)cc3C2c2ccccc2)cc1 (stereo not given)	-5	24	-5.0	15%
48	COC(=O)c1cc(S(=O)(=O)N2CCN(c3ccccc3F)CC2)c[nH]1	-7	-8	-2.0	-2%

cpd	ClpP mod	gsp ag	Sfp inh
37	28µM*	?	-4%
38	-1.2%&1.5%	-58%[inhibitor]	16%
39	-2.3%	-16%	9%
40	2.9%	-63%	·
41	-1.3%	2%	-13%
42	2.2%	?	-1%
43	-5.0%	4%	-26%
44	-1.7%	-76%[inhibitor]	·
45	1.7%	5%	·
46	·	-3%[15.4 µM]	15%
47	·	2%	16%
48	0.5%	30%	12%

More entries follow.
cpd	SMILES	D2 potentiator	TRPV1 potentiator	Menin-MLL FL inh	gsp antag
49	O=c1oc(CCO)cc2ccc(-c3ccc4[nH]ccc4c3)cc12	-15	1	·	-4%
50	O=C(CSc1nnc(Cc2cccs2)n1C1CCCCC1)N1CCCc2ccccc21	3	-22	2.7	?
51	N#CC1=C(N)N(c2ccc(Oc3ccccc3)cc2)C(=O)C1	-10	3	4.7	-5%
52	CCOC(=O)c1c(NC(=O)CN2CCN(c3cccc(Cl)c3)CC2)sc(C)c1C	-3	·	·	10%
53	CCN1CNC(=S)N(c2ccccc2OC)C1	-1	-3	4.6	12%

cpd	ClpP mod	gsp ag	Sfp inh
49	-14%	8%	·
50	-2.2%	6%	-25%
51	-0.2%	-3%	20%
52	-0.9%	-4%	·
53	-3.5%	14%[15.4 µM]	?

Hits appear at their usual frequency (roughly 5.1% active in at least one column).
